CBX7 AlphaScr = CBX7 inhibition, primary AlphaScreen; 66,000 tested, 1.1% active; O95931; normalised signal (fraction of DMSO) (no concentration beside the values); AID 1224903; AlphaScreen His6-CBX7 / biotin-H3K27me3 peptide binding; active compounds read low; in the data active = normalised signal below about 0.5;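 note: 100 nL library stock added to about 20 µL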
Target sequence (O95931 whole entry, looked up): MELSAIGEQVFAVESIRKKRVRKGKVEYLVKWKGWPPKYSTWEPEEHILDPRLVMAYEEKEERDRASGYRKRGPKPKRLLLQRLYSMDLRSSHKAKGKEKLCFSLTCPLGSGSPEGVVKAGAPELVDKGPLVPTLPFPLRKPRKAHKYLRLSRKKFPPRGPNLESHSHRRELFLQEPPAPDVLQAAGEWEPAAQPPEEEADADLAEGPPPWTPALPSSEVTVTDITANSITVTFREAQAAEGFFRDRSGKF
CBX7 AlphaScr z-score = further read-out of CBX7 AlphaScr, marked with its call; z-score; measured here: z-score of CBX7 signal; some inactives read as strong as hits; reference of the scale not given here;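 same signal on another scale; lower means less binding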
* hit, by the source's call; & = joins results of further samples. An excerpt. The share of hits here may be higher or lower than overall.

Molecule | CBX7 AlphaScr | CBX7 AlphaScr z-score
COCCCNC(=O)CSc1nc(-c2ccc(F)cc2)[nH]c1-c1ccc(Cl)cc1 | 0.934 | -1.75
CC1CCC(NC(=O)c2cc3sc(Cl)cc3n2C)CC1 (stereo not drawn) | 0.975 | -1.01
CCN(CC)c1cc(C)c2cc(NC(=O)c3ccc(Cl)nc3)ccc2n1 | 1.23 | 2.55
Cc1ccc(CCNC(=O)c2ccc3c(c2)N(Cc2ccc(F)cc2)C(=O)c2ccccc2S3)cc1 | 1.03 | 1.36
CCCOc1ccc(C2CC(=O)Nc3cc(OC)cc(OC)c32)cc1 (stereo not drawn) | 1.23 | 1.53
CCOc1ccc(NC(=O)c2c(NCc3cccc(OC)c3)sc3c2CCC3)cc1 | 1.04 | 1.88
COc1cc2nc(/C=C/c3ccccc3F)n(-c3ccc(C)c(F)c3)c(=O)c2cc1OC | 1.01 | 0.33
CC1CCC(NC(=O)c2csc3c2CCC(C)C3)CC1 (stereo not drawn) | 1.04 | 1.38
COc1ccc(C(=O)Nc2c3c(nn2-c2cccc(C)c2)CSC3)cc1OC | 0.89 | -2.47
COCCNC(=O)c1ccc2c(=O)n(Cc3ccc(OC)cc3)c(=O)[nH]c2c1 | 0.944 | -1.39
COc1cccc2sc(NC(=O)c3ccc(S(=O)(=O)N4CCCC(C)C4)cc3)nc12 (stereo not drawn) | 1.34 | 3.9
COc1ccc(C2C(Oc3ccccc3)C(=O)N2c2ccc(C)c(Cl)c2)cc1OC (stereo not drawn) | 1.04 | 1.66
CC1CCCC(NC(=O)C2CCCN(c3nc4ccccc4o3)C2)C1C (stereo not drawn) | 1.05 | 1.6
O=C(Nc1ccc(Oc2ccc(Cl)cc2)cc1)C1(c2ccccc2)CCCC1 | 1.32 | 8.57
O=C(Cn1cc2c(n1)CCCC2)N1CCc2ccccc21 | 1.02 | 0.686
COc1ccc(C(=O)NCc2nc3ccccc3[nH]2)cc1OC | 1.25 | 2.53
O=C(NC(c1ccccc1)c1ccccc1)C1CCCN(S(=O)(=O)c2cccc3cccnc23)C1 (stereo not drawn) | 0.884 | -3.1
O=c1[nH]c2ccccc2n1CCCSc1nc2ccccc2o1 | 1.1 | 0.693
COc1cccc(C(=O)Nc2ccc(S(=O)(=O)Nc3nccc(C)n3)cc2)c1 | 1.13 | 3.19
CCOC(=O)c1cc(-c2ccc(OC)cc2)n(CCC(=O)NC2CCCC(C)C2C)c1C (stereo not drawn) | 0.889 | -1.2
Cc1cccc(C)c1NC(=O)CSc1nnc(-c2cccnc2)n1Cc1ccccc1 | 1.04 | 1.24
Cc1ccc(S(=O)(=O)Nc2ccccc2C(=O)Nc2nc3c(C)cc(C)cc3s2)cc1 | 0.769 | -3.89
CCC1CCCCN1c1nc(C)nc2sc3c(c12)CCC3 (stereo not drawn) | 1.15 | 1.41
Cc1ccccc1OCC(=O)Nc1cc(-c2nc3ncccc3o2)ccc1Cl | 1.04 | 1.4
COc1ccc(CNC(=O)CN(C)S(=O)(=O)c2ccc3nc(C)sc3c2)cc1 | 1.24 | 1.39
O=C1CN(C(=O)CCc2ccccc2)C(c2ccccc2)c2cc(Br)ccc2N1 (stereo not drawn) | 0.902 | -0.411
Cc1nc2c(-c3ccccc3)c(C)nn2c(C)c1CCC(=O)N1CCCC1 | 1.22 | 2.42
O=C(NCc1ccccn1)c1cc(-c2cccs2)nc2ccccc12 | 1.03 | 1.39
CCC(=O)N1CCc2cc(Br)cc(S(=O)(=O)NCc3cccc(OC)c3)c21 | 1.03 | 1.21
Cc1nc(N2CCCCC2)c2c(C)c(C(=O)NC3CCCC(C)C3C)sc2n1 (stereo not drawn) | 0.845 | -2.23
O=C1c2ccc(N3Cc4ccccc4C3)cc2C(=O)N1Cc1ccccc1 | 0.993 | -0.0855
CCC(Cc1ccccc1)NC(=O)Cn1ncc2ccsc2c1=O (stereo not drawn) | 1.01 | 0.277
CCCCCCCNC(=O)COc1ccc2c(c1)C(=O)CC(C)(C)O2 | 1.04 | 0.306
O=C(NCc1cccc(Cl)c1)Nc1cccs1 | 0.986 | -0.656
CCCC1CCC(c2ccc(C#N)c(=O)[nH]2)CC1 (stereo not drawn) | 0.95 | -0.545
COCCNC(=O)CSCc1nc(-c2ccc(OC)c(OC)c2)oc1C | 1.14 | 3.11
CNS(=O)(=O)c1cc(-c2nnc(N3CCOCC3)c3ccccc23)ccc1C | 1.14 | 0.909
CCc1ccc(C2CC(=O)NC3=C2C(=O)CC(C)(C)C3)cc1 (stereo not drawn) | 0.971 | -0.374
Cc1cc(C)cc(NC(=O)c2ccc(NC3=NC4CS(=O)(=O)CC4S3)cc2)c1 (stereo not drawn) | 1.05 | 0.914
CNC(=O)c1cc(Nc2ccccc2OC)nc2ccccc12 | 1.12 | 3.41
COc1cc(OC)c(NC(=O)C2CCCN(S(=O)(=O)c3cccc4cccnc34)C2)cc1Cl (stereo not drawn) | 0.968 | -0.339
NC(=O)NC1CCCc2c1[nH]c1ccc(Cl)cc21 (stereo not drawn) | 1.07 | 1.9
Cc1nn(Cc2ccccc2Cl)c(C)c1NC(=O)c1cc(-c2ccc3c(c2)OCO3)on1 | 1.07 | 1.96
CCOC(=O)Cc1nnc2c(Nc3ccc(C)cc3)nc3nonc3n12 | 0.87&0.953 | -1.67&-1.16
CCCSc1oc(-c2ccc(F)cc2)nc1S(=O)(=O)c1ccc(Br)cc1 | 1.05 | 0.0915
CCCNC(=O)c1ccc2c(c1)N(Cc1ccccc1Cl)C(=O)CS2 | 1.02 | 0.389
CCOc1ccc2nc(NC(=O)c3ccc(OCC)c(Br)c3)sc2c1 | 0.961 | -0.774
NS(=O)(=O)c1ccc(CNC2CC(=O)N(c3cccc(Br)c3)C2=O)cc1 (stereo not drawn) | 0.949 | -0.699
COc1ccc(OC)c(C2=NOC(C(=O)N(C)c3ccccc3)C2)c1 (stereo not drawn) | 1.03 | 1.1
CCOc1ccc(-n2nc(C(=O)Nc3ccc(OC)cc3OC)c3ccccc3c2=O)cc1 | 0.901 | -1.76

Fetched one by one from above:
Molecule | CBX7 AlphaScr | CBX7 AlphaScr z-score
CC1CCC(NC(=O)c2cc3sc(Cl)cc3n2C)CC1 (stereo not drawn) | 0.975 | -1.01
CCCNC(=O)c1ccc2c(c1)N(Cc1ccccc1Cl)C(=O)CS2 | 1.02 | 0.389
COc1ccc(C2C(Oc3ccccc3)C(=O)N2c2ccc(C)c(Cl)c2)cc1OC (stereo not drawn) | 1.04 | 1.66
Cc1ccc(S(=O)(=O)Nc2ccccc2C(=O)Nc2nc3c(C)cc(C)cc3s2)cc1 | 0.769 | -3.89

(cont.)
Molecule | CBX7 AlphaScr | CBX7 AlphaScr z-score
CCOCCCNC(=O)c1ccc2c(c1)N(Cc1cc(C)ccc1C)C(=O)c1ccccc1S2 | 0.894 | -2.76
CCOc1ccc(-n2c(Cc3cc(=O)[nH]c(=O)[nH]3)nnc2SC(C)CC)cc1 (stereo not drawn) | 0.877 | -1.89
O=C(Nc1cccc(F)c1)N1CCN(c2ccccn2)CC1 | 0.948 | -1.07
COc1ccc(CCNC(=O)C2CCN(Cc3nc(-c4ccccc4C)oc3C)CC2)cc1OC | 1 | 0.0177
COCCNC(=O)c1nnc(Cc2ccc(Cl)cc2)o1 | 1.15 | 1.75
Cn1c(=O)n(C)c2cc(Nc3nc4ccccc4nc3NS(=O)(=O)c3ccc(Cl)cc3)ccc21 | 0.944 | -1.34
Cc1noc(C)c1S(=O)(=O)NCC(=O)NCc1ccccc1 | 1.03 | 0.882
CCOc1ccc(-n2nc(C(=O)NC(C)C)c3ccccc3c2=O)cc1 | 1.02 | 0.495
CCc1ccc(NC(=O)Cn2cc(S(=O)(=O)c3ccccc3)c(=O)c3cc(F)ccc32)cc1 | 0.984 | -0.226
COc1ccc(-c2cc(C(=O)OC(C)C)c3cc(Br)ccc3n2)cc1 | 1.71 | 2.51
COc1cccc(C2CC(=O)Nc3cc(C)c(C)cc32)c1 (stereo not drawn) | 0.799 | -0.409
COc1cccc(NC(=O)C2(S(=O)(=O)c3ccc(C)cc3)CC2)c1 | 1.15 | 2.89
Cc1ccc(-c2nc3nc(-c4ccc(Br)cc4)cn3nc2-c2ccc(C)cc2)cc1 | 1.66 | 0.657
COc1ccc(CNC(=O)c2ccc3c(c2)N(Cc2ccccc2)C(=O)c2ccccc2S3)cc1 | 0.932 | -0.672
CCOc1ccc(-c2cc(C(=O)N3CCN(c4ncccn4)CC3)c3ccccc3n2)cc1 | 1.1 | 1.33
CCCCNC(=O)CCc1nc2ccccc2n(Cc2ccccc2F)c1=O | 0.897 | -1.12
CC1CCN(S(=O)(=O)c2ccc3[nH]c(=O)cc(C(=O)NCCN(C)Cc4ccccc4)c3c2)CC1 | 0.947 | -0.524
COCCNC(=O)CN1CCN(Cc2ccccc2Cl)C1=O | 1.06 | 0.805
CC(=O)N1CCc2cc(S(=O)(=O)NCCC(=O)Nc3ccc(C)cc3)ccc21 | 1.15 | 1.88
CCCC(=O)N1CC(=O)Nc2ccc(C)cc2C1c1ccc(F)cc1 (stereo not drawn) | 1.18 | 3.62
CCOC(=O)c1cnc2ccc(OCC)cc2c1Nc1cccc(OC)c1 | 0.994 | -0.161
Cc1ccc(Nc2c(-c3ccc(C)cc3)nc3ccc(Br)cn23)cc1 | 0.961 | -0.396
COc1ccc(-c2cc(CCCC(=O)Nc3cccc(OC)c3)no2)cc1 | 1 | 0.198
Cc1cc2c(cc1C)NC(CC(=O)Nc1ccccc1C#N)C(=O)N2 (stereo not drawn) | 1.01 | 0.23
CC(C)n1cnc2cc(NCc3ccc(Br)cc3)ccc21 | 0.378* | -17.9*
Cc1ccc(-n2ncc3c(Nc4cccc5c4CCCC5)ncnc32)c(C)c1 | 0.973 | -0.675
Cc1cccc(C)c1Nc1c(-c2cccs2)nc2ccc(Cl)cn12 | 1.08 | 0.102
Cc1nc2ccc(S(=O)(=O)NC(C(=O)NC3CCCCC3C)C(C)C)cc2s1 (stereo not drawn) | 1.08 | 1.57
CCOC(=O)c1c(NC(=O)COc2ccc(C(C)C)c(C)c2)sc2c1CCCC2 | 0.97 | -0.707
c1ccc2cc(Oc3nncc4ccccc34)ccc2c1 | 0.84 | -4.61
CCOC(=O)c1nnn(-c2nonc2N)c1CNCC(O)c1ccccc1 (stereo not drawn) | 0.971 | -0.115
Cc1ccc(-c2[nH]c(-c3ccccc3)nc2SCC(=O)Nc2nccs2)cc1 | 0.93 | -1.19
Cc1c(C(=O)Nc2ccc3c(c2)OCCO3)sc2ncn(CC(=O)N3CCCCC3C)c(=O)c12 (stereo not drawn) | 0.897 | -0.648
OCCCNc1ncnc2c1c(-c1ccccc1)cn2-c1cccc(Cl)c1 | 0.908 | -2.34
CCOc1ccc(/C=C/c2nc3ccccc3n2S(=O)(=O)c2cccc(Cl)c2)cc1 | 1.08 | 1.02
COc1ccc(C)cc1NC(=O)c1ccc2c(=O)n3c(nc2c1)CCCCC3 | 0.915 | -0.176
Cc1ccc(-c2csc(NC(=O)CCCOc3ccccc3)n2)cc1 | 1.04 | 1.23
CN(C)CCNc1oc(-c2ccc(F)cc2)nc1C#N | 1.32 | 3.49
CCCCOc1ccc(C(=O)NCCc2cc3ccc(OC)cc3[nH]c2=O)cc1 | 0.989 | -0.383
c1ccc(CC2CCN(c3ncnc4sc5c(c34)CCCC5)CC2)cc1 | 1.06 | 0.885
COc1cc2c(c(OC)c1)C(c1ccc(C)c(Br)c1)CC(=O)N2 (stereo not drawn) | 0.866 | -1.7
CC(C)OCCCNC(=O)c1ccc2c(c1)N(Cc1ccccc1)CCS2 | 0.682 | -0.421
Cc1cccc2c1-c1sc(C(=O)NC3CCC(C)CC3)cc1CO2 (stereo not drawn) | 1.61 | 17.2
COc1ccc(Cl)cc1NC(=O)C(Cc1ccccc1)NS(=O)(=O)c1cccs1 (stereo not drawn) | 1.06 | 1.85
Cc1[nH]c2ccc(-c3nnc(SCC(=O)O)n3-c3ccccc3)cc2c1C | 1.11 | 3.03
CCC(C)NC(=O)c1ccc2c(c1)N(Cc1ccc(Cl)cc1)C(=O)c1ccccc1S2(=O)=O (stereo not drawn) | 0.986 | -0.325
Cc1ccc(Sc2cc(C(=O)NCCN(C)C)c3ccccc3n2)cc1 | 1.03 | 0.164
CC(NC(=O)C(=O)NCCN(C)C)C(c1cccs1)N1CCN(c2ccccc2)CC1 (stereo not drawn) | 1.02 | 0.217
CCc1ccc(OCc2nc(-c3ccccc3)no2)c(Br)c1 | 1 | 0.0105
COc1ccc(-c2cn3c(C)c(C(=O)Nc4ccc(NC(C)=O)cc4)sc3n2)cc1 | 1.06 | 1.01

Continued:
Molecule | CBX7 AlphaScr | CBX7 AlphaScr z-score
CC(C)n1c(C2CC(=O)N(c3cccc(C(F)(F)F)c3)C2)nc2ccccc21 (stereo not drawn) | 1.14 | 1.03
O=C1CCc2cc(S(=O)(=O)N3CCN(c4cccc(Cl)c4)CC3)ccc2N1 | 1.01 | 0.148
O=C(Nc1ccc(S(=O)(=O)Nc2ncccn2)cc1)c1ccccc1Br | 0.943 | -1.6
Cc1cccc(NC(=O)CSc2nccn2-c2cccc(C)c2C)c1C | 1.03 | 0.0272
O=C(Cn1c2c(c(-c3ccccc3Cl)cc1=O)CCC2)NCc1ccc(F)cc1 | 1.04 | 0.397
Cc1ccccc1-c1nc(CS(=O)(=O)CC(=O)NCCCN2CCCC2)c(C)o1 | 0.977 | -0.599
COc1ccc(-c2nnc(N3CCOCC3)c3ccccc23)cc1 | 0.982 | -0.607
COc1ccc(OC)c(-c2cc(C(=O)NCc3cccnc3)no2)c1 | 1.03 | 0.266

Whole records as entered above. Screens in order: CBX7 AlphaScr	CBX7 AlphaScr z-score
COc1ccc(OC)c(-c2cc(C(=O)NCc3cccnc3)no2)c1 as listed: 1.03	0.266
O=C1CCc2cc(S(=O)(=O)N3CCN(c4cccc(Cl)c4)CC3)ccc2N1 as listed: 1.01	0.148
Cc1cccc(NC(=O)CSc2nccn2-c2cccc(C)c2C)c1C as listed: 1.03	0.0272
Cc1ccccc1-c1nc(CS(=O)(=O)CC(=O)NCCCN2CCCC2)c(C)o1 as listed: 0.977	-0.599
O=C(Cn1c2c(c(-c3ccccc3Cl)cc1=O)CCC2)NCc1ccc(F)cc1 as listed: 1.04	0.397

Screens as filed in PubChem.
